High-throughput results as filed in PubChem BioAssay.
Tgondii IFNg – blocks Toxoplasma gondii growth in the presence of IFN-gamma | hit rate 3.8% among 69,000 | Toxoplasma gondii growth in IFN-gamma-treated host cells; active compounds read low; reference of the scale not given here | AID 1259416 | activity change, negative = inhibition, %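 (about 20 µM by stock and volumes)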;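 active means below -70%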;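 further: host cells are HeLa cells infected with Toxoplasma gondii; parasite growth read as luciferase light; one replicate is shown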
An asterisk follows results filed as active.

SMILES	Tgondii IFNg
CCOCC12CCCOC1CCN(C(=O)c1cc(C)nn1CC)C2 (stereo not drawn)	-20
CO[C@@H]1CCN(C2CCOCC2)C[C@@H]1Cc1cccc(C)c1	-5
Cc1c(/C=C/c2nc3ccccc3c(=O)n2-c2ccccn2)c2ccccc2n1C	124
C[C@H]1CC(=O)NCC/C=C\C[C@H](c2cccc(Cl)c2)NC1=O	8
Cc1ccsc1C(=O)N1CC[C@@]2(C[C@H](OCc3cccnc3)CO2)C1	17
O=C(NCc1noc(-c2ccco2)n1)[C@H]1Cc2ccccc2CN1	5
Cn1cc(CN2CCCC3(COCCN(c4cccc(F)c4)C3)C2)cn1 (stereo not drawn)	-12
CN(C)c1ccc(-c2nc(-c3cc4cc(Cl)ccc4oc3=O)cs2)cc1	9
O=S(=O)(c1ccc2ccccc2c1)N1CCOC2(CNCCOC2)C1 (stereo not drawn)	-5
O=C1[C@@H]2C[C@H](O)CCN2C(=O)CN1CCC(c1ccccc1)c1ccccc1	-33
c1ccc(COCC2NCCc3c2nnn3CC2CC2)cc1 (stereo not drawn)	-63
O=C(Nc1ccccc1)N1CCN(c2ccccn2)CC1	53
COc1ccccc1NC(=O)N[C@H]1CC[C@@H](CCNS(=O)(=O)c2ccc(Cl)cc2)O[C@@H]1CO	-49
CCCn1nc(C)c(CNc2nc(-c3cccnc3)nc3c2CCNC3)c1C	-51
c1ccc(Nc2ncnc3ccccc23)cc1	-61
Cc1nn(CC(=O)NC2CC2)c(=O)c2nc(-c3ccccc3)sc12	0
O=C(/C=C/c1ccc(F)cc1)NC(=S)N1CCCCC1c1cccnc1 (stereo not drawn)	-5
COC(=O)c1ccc(C(=O)OC)c(NC(=O)N2CCC3(CC2)Nc2cc(F)ccc2-n2cccc23)c1	64
Cc1ccc(S(=O)(=O)N(C)C[C@@H]2OCCCC[C@@H](C)Oc3ccc(NC(=O)c4ccncc4)cc3C(=O)N([C@@H](C)CO)C[C@H]2C)cc1	-40
CCCCCCCCCCCCCCCCn1cc[n+](Cc2ccccc2)c1C	-79*
COc1ccc(C(=O)N2CCc3c([nH]c4ccccc34)C2c2ccc(F)cc2)cc1OC (stereo not drawn)	-32
CO[C@@H]1[C@@H](O[C@@H]2O[C@H](C)[C@@H](O[C@H]3C[C@@](C)(O)[C@H](O)[C@H](C)O3)[C@H](N(C)C)[C@H]2O)[C@@H](CC=O)C[C@@H](C)[C@@H](O[C@H]2CC[C@H](N(C)C)[C@@H](C)O2)/C=C/C=C/C[C@H](C)OC(=O)C[C@H]1O	-15
C[C@H](CO)N1C[C@H](C)[C@H](CN(C)C(=O)Nc2ccc(C(F)(F)F)cc2)OCCCC[C@H](C)Oc2ccc(NS(=O)(=O)c3cn(C)cn3)cc2C1=O	-9
COCCN(C[C@H]1N[C@H](CO)[C@@H]1c1ccc(-c2cccc(C#N)c2)cc1)C(C)=O	-22
CC(=O)N1Cc2ncn(CC3CC3)c2C(COCC2CCOCC2)C1 (stereo not drawn)	-30
SMILES	Tgondii IFNg
C[C@H](CO)N1C[C@H](C)[C@H](CN(C)CC2CCCCC2)OCc2cnnn2CCCC1=O	181
COCCN1C(=O)N(C2Cc3ccccc3C2)C(=O)C12CCN(Cc1c(C)nc3sccn13)CC2	1
C=CCNC(=O)C1(Cc2ccc(-c3ccccc3F)cc2)CCCNC1 (stereo not drawn)	-36
Cc1ccc2c(c1)NC1(CCN(S(=O)(=O)c3ccc(C)c(C)c3)CC1)c1cccn1-2	29
Cn1cc(Br)c(-c2cccc(NC(=O)c3nccnc3C(=O)O)c2)n1	23
CC(C)c1nccn1C(C)C(=O)NCCc1c[nH]c2ccccc12 (stereo not drawn)	-14
CC(C)c1nnc(-c2coc(S(=O)(=O)N3CCC(N4CCCCC4)CC3)c2)o1	7
CCOc1ccccc1NC(=O)c1cncc(NS(=O)(=O)c2ccc(Br)cc2)c1	5
O=C(O)c1cc(Cl)nc(OCC(F)(F)F)c1	-62
Cc1ccccc1-c1nnc(NC(=O)CSc2ncc(-c3ccc(Cl)cc3)[nH]2)s1	10
Cc1noc(C)c1S(=O)(=O)N1[C@@H]2CNC[C@H]1C2c1ccc(-c2cccc(F)c2)cc1 (stereo partly drawn)	-8
COc1ccccc1-c1nc2cnccn2c1NCCC(=O)N1CCC(C)CC1	56
Cc1cc(-c2nccn2CCn2ccnc2)cc(C)c1O	-1
CN(Cc1nccs1)C(=O)c1cn(CC2CCCNC2)nn1 (stereo not drawn)	11
COc1ccc(C(=O)N2CCN(Cc3ccccc3CO)CC2)c(OC)n1	-9
Cc1nnnn1Cc1ccc(C(=O)O)cc1	-52
CO[C@@H]1CCN(C(=O)N2CCOCC2)[C@H]1Cc1ccccc1	-36
O=C(CC1CC2(CCN(C(=O)c3ccco3)CC2)c2ccccc21)NCC1CC1 (stereo not drawn)	-1
CC(C)C(=O)N1CCC2(CC1)COCCN2CCN(C)C	-2
CCN(Cc1ccncc1)Cc1nc(Cc2ccccc2Cl)no1	32
N#C[C@@H]1[C@H](c2ccccc2-c2cccc(F)c2)[C@@H](CO)N1C(=O)NC1CCCCC1	-15
CO[C@@H]1CN(C)C(=O)c2cc(NS(=O)(=O)CC(F)(F)F)ccc2OC[C@H](C)NC[C@@H]1C	176
Cn1ccnc1CN1CCN2C[C@@H](Oc3ccccc3)C[C@H]2C1	-2
Cc1ccccc1CN1CC[C@H]2[C@H](CC1)S(=O)(=O)CCN2C(=O)c1ccccc1	-4
CN1CCN([C@H]2CN(Cc3ncc[nH]3)C[C@@H]2O)CC1	28

Five entries from above, in markdown.
| smiles | Tgondii IFNg |
| --- | --- |
| CCOc1ccccc1NC(=O)c1cncc(NS(=O)(=O)c2ccc(Br)cc2)c1 | 5 |
| CN(Cc1nccs1)C(=O)c1cn(CC2CCCNC2)nn1 (stereo not drawn) | 11 |
| C=CCNC(=O)C1(Cc2ccc(-c3ccccc3F)cc2)CCCNC1 (stereo not drawn) | -36 |
| CC(C)c1nnc(-c2coc(S(=O)(=O)N3CCC(N4CCCCC4)CC3)c2)o1 | 7 |
| CCN(Cc1ccncc1)Cc1nc(Cc2ccccc2Cl)no1 | 32 |

Other entries
SMILES	Tgondii IFNg
Cc1ccc(NC(=O)N2CCC3(CC2)NC(=O)c2cc(Cl)ccc2N3C)cc1C	-49
COCCNC(=O)C[C@@H]1CC[C@@H]2[C@H](COc3ccc(NC(=O)Nc4cccc(F)c4)cc3C(=O)N2C)O1	43
Cn1ccnc1-c1ccc(N2CCN(C/C=C/c3ccccc3)CC2)nn1	13
CCn1cc(-c2ccnc3c2ccn3C)cn1	-58
COCC1CN(CC2CC2)Cc2nnn(C)c21 (stereo not drawn)	125
Cc1ccc(OCc2nnc(NC(=O)NCc3cccnc3)s2)cc1	-11
Cc1ccc(S(=O)(=O)N2CCN(Cc3ccc4c(c3)OCO4)CC2)cc1	-50
CCCN1CCC2C(C[C@@H](CN(C)C)N2c2nccs2)C1 (stereo partly drawn)	63
CC(C)C[C@H]1COCn2nncc2CC[C@H](C)C(=O)N1	-14
Cc1ccc(CNC(=O)Cn2c(=O)cc(-c3nc(C4CC4)no3)c3ccccc32)cc1	-16
CCCC(C)c1nnc(NC(=O)Cc2nc3nc(C)cc(C)n3n2)s1 (stereo not drawn)	6
CN(C)CC1(O)CCCN(C(=O)CCOc2ccccc2)C1 (stereo not drawn)	5
COc1ccc(Br)cc1-c1nc(Cn2nnc(C(=O)Nc3cc(F)ccc3C)c2C)c(C)o1	423
O=C(COC(=O)c1ccccc1-c1ccccc1)c1ccccc1	-14
O=C(Cc1ccccc1)N1CCc2ncnc(C3CC3)c2CC1	60
CCS(=O)(=O)N1CCC2(CC1)OC(=O)C(C)=C2C(=O)Nc1cc(F)ccc1F	33
Cc1c(C(=O)OCc2ccccc2)sc(N)c1C#N	135
CCCN/C(=C/C(=S)Nc1cccc2ccccc12)c1ccc(OC)cc1	84
O=C(NC1CCc2[nH]c(=O)ccc2C1)C1CCOC1 (stereo not drawn)	-31
O=c1[nH]c2ccccc2c2oc(-c3ccccc3)nc12	7
Cc1ccc(S(=O)(=O)N2C[C@H]3C[C@H](NC(=O)c4cc(=O)n(C)c(=O)n4C)[C@H]3C2)cc1	85
CC(C)(C)NC(=O)N1CCCC(C(=O)c2ccc(C(F)(F)F)cc2)C1 (stereo not drawn)	-3
CCCN1C[C@@H](C)[C@@H](OC)CN(C)C(=O)c2cc(NC(=O)Nc3cccc(F)c3)ccc2OC[C@H]1C	353
Cc1nc2c(ncn2-c2ccccc2)c(=O)n1NC(=O)CN1CCCC1	-5
CCN1C(=O)CC2(CCN(C(=O)c3cc(C)[nH]n3)CC2)c2ccccc21	4
SMILES	Tgondii IFNg
COc1cccc(CN2CCN(Cc3cnc(N(C)C)s3)CC2=O)c1	2
O=C(O)c1c2c(nc3ccccc13)CSc1ccc(Cl)cc1-2	23
Cc1ccc(NC(=O)c2c(O)c3cccnc3n(-c3cccc(F)c3)c2=O)cc1	54
CCn1ncc2c1C(COCC1CC1)N(C(=O)c1ccco1)CC2 (stereo not drawn)	22
COc1cccc(OC)c1-c1nccn1CCNc1ccccc1	-48
COc1ccc(C2(NC(=O)CCn3ncc4ccccc43)CCCCC2)cc1	18
Cc1ccc(-c2cc(-c3ccccc3)nc3sc4c(c23)CCCC4)cc1	33
CC(C)NC(=O)[C@@H]1C[C@H](N)CN1C(=O)CCn1cc(Cl)cn1	-2
Cc1nc2c(c(N3CCN(C(=O)c4ccccc4F)CC3)n1)CN(Cc1ccccc1)CC2	-27
CC(C)n1nnc(CC(=O)Nc2ccc(N3CCCCC3)c(C(F)(F)F)c2)n1	9
Cc1nc2cc3ccccc3cc2c(=O)[nH]1	63
COc1ccc2c3c([nH]c2c1)[C@@H](CO)N(C(C)=O)CC31CCN(C(=O)c2ccc3c(c2)OCO3)CC1	29
Cc1ccc(-c2noc(-c3c(O)c4cc(F)ccc4n(C)c3=O)n2)cc1	19
Cc1ccc(-c2coc(-c3ccc(NC(=O)COc4ccc(F)cc4)cc3)n2)c(C)c1	-9
O=C(c1ccc(Cl)cc1)c1ccc2c(c1)CCCCO2	341
CCC(NC(=O)c1ccccc1-c1ccccc1)c1ccccn1 (stereo not drawn)	-1
CCCCC/C=C\C/C=C\C/C=C\C/C=C\CCCC(=O)O	14
Cc1ccc(OCCCN(C)C(=O)C2CCNCC2)cc1C	-2
CN(C)C1CCCN(C(=O)c2ccc(CN3CCCC3)o2)CC1 (stereo not drawn)	7
O=c1ccc2c(o1)/C(=C/C=C(Cl)Cl)CCC2	18
CCCOc1ccccc1CN1CCn2c(CO)nnc2C1	-31
CCc1ccccc1S(=O)(=O)N1CCC(C(=O)NCCc2csc(-c3ccccc3)n2)CC1	-31
CN(C)CCO[C@H]1CN(Cc2ccco2)[C@H]2COC[C@@H]12	66
CCS(=O)(=O)N(C)C[C@@H]1N[C@H](CO)[C@@H]1c1ccc(-c2ccccc2F)cc1	11
NC(=O)CC[C@H](NC(=O)Cc1ccccc1)C(=O)O	23

3 entries from above in a different format:
| SMILES | Tgondii IFNg |
| --- | --- |
| CCOc1ccccc1NC(=O)c1cncc(NS(=O)(=O)c2ccc(Br)cc2)c1 | 5 |
| CCCCCCCCCCCCCCCCn1cc[n+](Cc2ccccc2)c1C | -79* |
| O=C(Nc1ccccc1)N1CCN(c2ccccn2)CC1 | 53 |

Going on with the list:
SMILES	Tgondii IFNg
CC(C)c1cc(C2CCN(C(=O)CN3CCOC3=O)CC2)[nH]n1	6
CCN1c2ccc(C)cc2C(=O)NC12CCN(C(=O)c1ccc(OC)cc1OC)CC2	41
COc1nn(C)c2c1CCCN(S(=O)(=O)c1ccccc1F)C2	-7
Cc1ccccc1S(=O)(=O)N1CSC[C@@H]1C(=O)NCCc1csc(-c2ccccc2)n1	6
CCCNC(=O)c1ccc2onc(-c3coc(-c4cccs4)n3)c2c1	12
CS(=O)(=O)N1CC[C@@H]2[C@@H](CO[C@H]2CNc2ncccn2)C1	10
CCOc1ccc(N(Cc2nc(-c3ccc(OC)cc3)oc2C)S(=O)(=O)c2cccs2)cc1	-47
N#C[C@H]1[C@@H](c2ccc(C3=CCCCC3)cc2)[C@H](CO)N1C(=O)CN1CCOCC1	13
Cc1ccc(NC2(C(=O)N3CCCC3c3cc(C)no3)CCCC2)cc1 (stereo not drawn)	1
COc1cccc(F)c1-c1ccc(C(=O)NC(C)(C)C)o1	24
Cc1oc(-c2cccc(Cl)c2)nc1CN(C)S(=O)(=O)c1ccc(F)cc1	-16
COc1ccc(S(=O)(=O)N2CCCn3nnc(CN4CCCCC4)c3C2)cc1	-17
Cn1cccc1C(=O)NC1CCc2[nH]c(=O)ccc2C1 (stereo not drawn)	2
Cc1ccsc1[C@@H]1CCN(Cc2ncc[nH]2)C[C@H]1O	0
Cc1ccc(C(=O)N2CCCC3(C2)Nc2cccnc2NC3=NC2CCCC2)cc1F (stereo not drawn)	8
C=CCSc1ncnc2c1sc1nc(C)cc(C)c12	99
CN1C(=O)c2cc(NC(=O)Nc3ccccc3Cl)ccc2OC[C@H]2O[C@H](CC(=O)NCCCN3CCOCC3)CC[C@H]21	0
Cn1cc(-c2ncnc3c2CCN(c2ncccn2)CC3)cn1	-4
Cc1ccc(Sc2ncccc2NC(=O)Cc2ccccc2)cc1	22

Some of the entries above, reformatted.
compound: Cc1noc(C)c1S(=O)(=O)N1[C@@H]2CNC[C@H]1C2c1ccc(-c2cccc(F)c2)cc1 (stereo partly drawn)
  Tgondii IFNg: -8

compound: CN1C(=O)c2cc(NC(=O)Nc3ccccc3Cl)ccc2OC[C@H]2O[C@H](CC(=O)NCCCN3CCOCC3)CC[C@H]21
  Tgondii IFNg: 0

compound: CN(C)CCO[C@H]1CN(Cc2ccco2)[C@H]2COC[C@@H]12
  Tgondii IFNg: 66

compound: Cc1ccc(NC(=O)N2CCC3(CC2)NC(=O)c2cc(Cl)ccc2N3C)cc1C
  Tgondii IFNg: -49

Not all compounds are listed; the hit share may differ from the screen's.
